UUG fidelity = modulators of start codon recognition fidelity in yeast | S. cerevisiae UUG-firefly luciferase reporter, luminescence/redox ratio | activity score, % at 18.7 µM | 350,000 compounds, 0.13% hits | AID 602363;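 active = replicate mean at a twofold rise or more, about +100% in these data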;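 also: firefly luciferase made from a UUG start codon reports start codon fidelity; reporter light over untreated wells divided by growth signal over untreated wells; some hits fall short of that in this replicate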
Env fusion inh = blocks HIV Env-driven cell-cell fusion; HeLa-JRFL Env/CEM21 cell fusion, luciferase; inhibition, % at 12.3 µM; 360,000 compounds, 1.1% hits;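 active = mean replicate inhibition score of at least 50 and every replicate individually at or above 50; inconclusive = only one of the two criteria met; inactive = mean below 50 and not all replicates reaching 50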;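 also: 0% = plate neutral controls and 100% = maraviroc near 300 nM; one replicate is shown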
MT1-MMP act inh = inhibitors of human MT1-MMP activation | P50281 | HT1080 RFP-PRO-GFP cells, GFP/RFP ratio fluorescence, overnight; percent of plate control window, DMSO zero | GFP/RFP ratio change, % at 20 µM | 360,000 compounds, 0.061% hits | AID 651647;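 active = GFP/RFP ratio change of at least 30% with cell ATP level not reduced by more than half and red fluorescence within 50% of control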; also: strong numbers were not always called active
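Test system: HT1080 RFP-PRO-GFP cells; Benchmarks: DMSO and RFP-L50D-GFP cell wells; Timing: cells overnight before dosing, compound overnight, 37 °C, 5% CO2; Compound: one 20 µM compound dose with 1% DMSO; Read-out: GFP/RFP fluorescence ratio.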
eIF4H FP inh = inhibitors of RNA binding by human eIF4H | Q15056 | eIF4H fluorescence polarization binding assay | inhibition, % at 35 µM | 290,000 compounds, 0.94% hits | AID 2012;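 active = 50% or more with normal probe brightness, or confirmed in later tests; inconclusive = above 50% with abnormal brightness, or retests that disagree; inactive = below 50% or failed in later tests; about a fifth of its hits are not listed in these tables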;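 also: calls also rest on retests at 20 µM and on dose response follow-up; 0% = protein and probe with vehicle and 100% = probe without protein; strong numbers were not always called active; many hits fall short of the cut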
PABP FP inh = PABP-poly(A) binding inhibition; P11940; PABP-poly(A) RNA binding, fluorescence polarization; inhibition, % at 35 µM; 290,000 compounds, 1% hits;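 active = 50% or more with normal probe brightness, or confirmed in later tests; inconclusive = above 50% with abnormal brightness, or retests that disagree; inactive = below 50% or failed in later tests; about a fifth of its hits are not listed in these tables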;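 also: calls also rest on retests at 20 µM and on dose response follow-up; controls were probe without protein and protein plus probe with vehicle; some compounds called inactive have numbers as strong as hits; many hits fall short of the cut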
Target sequence (P11940 whole entry, looked up): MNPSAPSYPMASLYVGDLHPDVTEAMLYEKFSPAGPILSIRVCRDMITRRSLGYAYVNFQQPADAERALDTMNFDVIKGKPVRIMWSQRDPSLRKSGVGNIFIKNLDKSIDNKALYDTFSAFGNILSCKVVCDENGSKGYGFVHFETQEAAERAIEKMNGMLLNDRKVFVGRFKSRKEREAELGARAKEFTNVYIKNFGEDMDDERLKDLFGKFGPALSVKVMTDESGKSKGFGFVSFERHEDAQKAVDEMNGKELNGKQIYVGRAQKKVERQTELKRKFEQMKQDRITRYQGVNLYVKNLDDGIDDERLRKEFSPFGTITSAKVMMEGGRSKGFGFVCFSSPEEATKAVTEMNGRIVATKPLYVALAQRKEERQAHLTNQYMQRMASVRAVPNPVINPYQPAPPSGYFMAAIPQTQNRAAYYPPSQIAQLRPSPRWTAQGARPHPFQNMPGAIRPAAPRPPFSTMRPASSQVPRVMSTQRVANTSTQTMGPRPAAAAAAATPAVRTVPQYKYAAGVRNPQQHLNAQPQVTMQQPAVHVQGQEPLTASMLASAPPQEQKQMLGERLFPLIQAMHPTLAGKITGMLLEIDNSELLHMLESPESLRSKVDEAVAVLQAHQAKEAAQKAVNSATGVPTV
Rce1 inh = yeast Ras-converting enzyme inhibition; Q03530; yeast membranes, quenched prenylated peptide cleavage fluorescence; calls only; 290,000 compounds, 0.27% hits;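 active = fall in fluorescence gain of 50% or more versus controls, with final raw signal at or below 3038400; inconclusive = same 50% fall but final raw signal above 3038400; inactive = fall in fluorescence gain under 50%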;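 also: plate controls were neutral control wells for no effect and wells lacking membranes for full effect; tested at 10 µM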
Target sequence (Q03530 whole entry, looked up): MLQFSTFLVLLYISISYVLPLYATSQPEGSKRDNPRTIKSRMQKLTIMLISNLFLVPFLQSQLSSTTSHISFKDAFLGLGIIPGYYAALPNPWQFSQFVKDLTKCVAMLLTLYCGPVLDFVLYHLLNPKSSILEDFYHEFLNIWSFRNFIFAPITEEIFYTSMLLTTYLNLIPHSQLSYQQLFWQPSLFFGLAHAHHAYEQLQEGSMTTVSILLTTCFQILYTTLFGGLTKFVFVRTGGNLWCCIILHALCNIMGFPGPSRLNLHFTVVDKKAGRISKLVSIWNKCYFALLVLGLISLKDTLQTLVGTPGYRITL
CSC inhib = blocks cancer stem cells; cancer stem cell-like cells viability, luminescence; inhibition, % at 7.5 µM; 300,000 compounds, 1.1% hits; AID 2717;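 active = mean at 75% or more and at least half the replicates too; inconclusive = mean and replicates disagree; tested in HMLE shEcad cells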;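 also: 0% = median of negative and 100% = median of positive control wells; the first replicate is given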
MT1-MMP act inh RFP = recorded beside MT1-MMP act inh, whose call it bears; RFP signal change, %; measured here: RFP expression control read;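 0 = vehicle wells; hits needed this value within 50% of zero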
Starred values were filed as active, the others as inactive; i = inactive; ? = inconclusive; nt = not tested or not shown.

nr	mol	UUG fidelity	Env fusion inh	MT1-MMP act inh	MT1-MMP act inh RFP	eIF4H FP inh	PABP FP inh	Rce1 inh	CSC inhib
1	Cc1cccn2c(=O)c3cc(C(=O)NCc4cccnc4)c(=N)n(CC4CCCO4)c3nc12 (stereo unspecified)	-14	-14	-1	3	10	6	?	nt
2	CCCN(CCC)CC(C)(C)NS(=O)(=O)c1ccc(Cl)cc1	-17	6	2	2	0	12	i	-4
3	CC(C)CC(=O)Nc1ccc(-c2nc3ccccc3c(=O)o2)cc1	nt	1	2	3	1	18	i	-3
4	CCN(CC)S(=O)(=O)c1ccc(N2CCOCC2)c(NC(=O)c2cccc(C#N)c2)c1	nt	14	9	6	5	2	i	nt
5	COc1ccc(N2CC(C(=O)Nc3nnc(SCC(=O)N4CCOCC4)s3)CC2=O)cc1 (stereo unspecified)	-14	-128	1	3	-7	-2	i	-2
6	Nc1nc(-c2ccc3ccccc3c2)c(C2(O)C(=O)Nc3c(Br)cc(F)cc32)s1 (stereo unspecified)	-2	22	-3	-2	-13	-12	i	-13
7	Cc1ccc(C)c(N2CCN(C(=S)Nc3ccc4nc(N5CCN(C)CC5)cc(C)c4c3)CC2)c1	-19	23	0	-4	2	-2	i	?
8	O=C(O)/C=C/C(=O)Nc1ccc(Cc2ccc(NC(=O)/C=C/C(=O)O)cc2)cc1	nt	10	1	2	12	15	i	10
9	Cc1cc(NS(=O)(=O)c2ccc(N3C(=O)C4C5C=CC(C5)C4C3=O)cc2)nc(C)n1 (stereo unspecified)	nt	-9	-1	1	9	6	i	-21
10	COc1cccc(-c2cc(C(=O)NCCCn3ccnc3)c3ccccc3n2)c1	nt	12	-4	-1	5	11	i	-7
11	O=C(CCC1CCCCC1)Nc1cc(Cl)ccc1N1CCOCC1	-23	32	-2	2	nt	nt	nt	nt
12	COc1ccc(OCCSc2ncccn2)cc1	-32	-172	0	0	-6	6	i	4
13	CCCCOC(=O)N1CCOCCOCCOCC1	nt	0	-3	-2	0	2	i	-4
14	Cc1ccc(S(=O)(=O)NCC(=O)OCc2nnc(-c3ccccc3)o2)cc1C	0	nt	5	10	1	1	i	-14
15	COc1ccc(-c2cc(CCCC(=O)NCCc3ccccc3)no2)cc1	-8	-86	-1	-3	-2	16	i	-10
16	COc1ccc([N+](=O)[O-])cc1NC(=O)/C=C/C(=O)O	-5	3	-2	0	-2	-7	i	-5
17	O=C(CNC(=O)c1nc[nH]c1C(=O)NCC(=O)OCc1ccccc1)OCc1ccccc1	-3	-23	-8	3	-7	12	i	-9
18	O=C(CSc1nnnn1Cc1ccccc1)NCCc1ccccc1	-3	nt	-1	3	-12	-5	i	-1
19	CC/C(CC(C)(C)c1ccccc1)=N\O	-8	4	-3	0	0	2	i	-2
20	CCN(C(=O)COc1ccc(F)cc1Br)c1c(N)n(Cc2ccccc2)c(=O)[nH]c1=O	-13	0	1	4	nt	nt	nt	-11
21	CCOc1ccc(N(CC(=O)N2CCN(Cc3ccccc3)CC2)S(C)(=O)=O)cc1	-11	13	0	-1	-4	4	i	-4
22	Cc1cc2c3ccccc3ncn2n1	nt	-6	-7	-1	8	-7	i	-4
23	CCOc1ccc(N(CC)C(=O)Cc2c(C(=O)O)n(C)c3ccccc23)cc1	0	-2	-5	4	13	-4	i	-1
24	CCc1ccc(OCC(=O)NC(NC(=S)Nc2ccc(Cl)cc2)C(Cl)(Cl)Cl)cc1 (stereo unspecified)	nt	nt	-15	-18	0	-4	i	4
25	CCOc1ccc(C(c2c(C)n(C)n(-c3ccccc3)c2=O)c2c(C)n(C)n(-c3ccccc3)c2=O)c(O)c1	-20	-14	-1	-1	nt	nt	i	-4
26	COC(=O)c1c(NC(=O)c2ccc(C)cc2)csc1C	-13	-15	-4	1	-2	-4	i	-1
27	O=C(O)c1ccc(CNCc2cccc(OCc3ccc(F)cc3)c2)cc1	-10	-17	1	-2	-1	4	i	-6
28	COc1ccc(C(=O)N(Cc2ccco2)Cc2cc3cc(C)ccc3[nH]c2=O)cc1OC	-12	nt	-1	-2	nt	nt	i	2
29	Cc1ccc(C(=O)N2CCc3ccccc32)cc1NC(=O)c1ccco1	3	13	1	0	-8	6	i	-1
30	CCn1cc(C(=O)N2CCN(c3ccccn3)CC2)c2cc(OC)c(OC)cc2c1=O	-18	25	-1	-3	5	4	nt	-13
31	O=C(O)CS(=O)(=O)CC(=O)O	-9	nt	-2	3	-15	25	i	-13
32	Cc1ccc(/C=N/NC(=O)Cn2cnc3ccccc32)o1	-10	-52	2	5	-11	4	i	-1
33	COC(=O)c1scc(C)c1NC(=O)c1cccc(C#N)c1	-12	nt	-1	-1	4	3	i	-5
34	Cc1cc(C)n2nc(SCC(=O)Nc3ccc(O)cc3)nc2n1	-8	-8	0	1	9	6	i	nt
35	Cc1ccccc1Cn1ccc(NC(=O)c2onc(C)c2Cl)n1	-4	-17	3	-2	-7	-6	i	39
36	CC(C)(C)c1ccc(C(=O)Cn2cnnc2C#N)cc1	-13	3	1	0	13	-3	i	-22
37	CC(C)(C)S(=O)(=O)c1ccccc1-c1noc(-c2ccccc2)c1C(N)=O	-8	18	1	4	nt	nt	i	-17
38	CC(C)Sc1sc(C(=O)O)c(-c2ccc(Cl)cc2)c1C#N	nt	1	0	3	-2	6	i	13
39	O=C(/C=C/c1ccccc1[N+](=O)[O-])OCC(=O)c1ccccc1	nt	-13	5	0	-3	-2	i	-8
40	O=C(COC(=O)CCc1nc2ccccc2s1)NC(=O)NCc1ccco1	nt	-7	3	2	12	8	i	-9
41	O=S(=O)(Nc1ccc(N2CCOCC2)cc1)c1ccc(F)cc1	nt	-6	2	4	2	-9	i	-17
42	COc1cccc(NC(=O)CN(C)C(=O)c2ccc3ccccc3c2)c1	-13	-3	2	-1	-4	1	i	1
43	O=C(Oc1cncc(Cl)c1)c1ccco1	-10	0	-5	-2	-10	-9	i	nt
44	CCC(C)Sc1nnc(Cc2cc(=O)[nH]c(=O)[nH]2)n1-c1ccc(OC)cc1 (stereo unspecified)	-8	2	-3	5	6	1	i	8
45	O=C(CSC(=S)N1CCCCC1)Nc1ncc2c(n1)CCCC2=O	nt	-8	-5	2	6	3	i	-11
46	CCOC(=O)CSc1nc2ccc(NC(C)=O)cc2s1	-19	-81	-2	0	3	-2	i	-8
47	CS(=O)(=O)N1CCN(c2nc(-c3ccccc3)cs2)CC1	-8	nt	15	-1	1	-11	i	-4
48	CCC(=O)N1N=C(c2ccc(Cl)cc2)CC1c1ccco1 (stereo unspecified)	nt	6	1	-3	-11	-2	i	9
49	CS(=O)(=O)N(CC(=O)N1CCC(C(N)=O)CC1)C1CCCCC1	-15	-40	-2	4	-9	5	i	-9
50	Cc1occc1C(=O)Nc1cccc2ccccc12	-11	-277	10	0	2	2	i	6
51	CC(=O)c1ccccc1NC(=O)COC(=O)/C(=C/c1ccccc1)n1nnnc1C	-17	nt	-6	-13	-9	3	i	3
52	Cc1cc2ncn(N)c2cc1C	-17	-33	-5	-2	-6	11	i	-2
53	COc1ccc(C(C)=O)cc1CSc1nnc(-c2ccncc2)n1C	1	21	8	0	-2	6	i	0
54	CCN1C(=O)[C@H]2[C@H]3CN=C(SCc4ccc(Cl)cc4)N3[C@@](Cc3ccccc3)(C(=O)OC)[C@H]2C1=O	-2	6	-8	-12	nt	nt	nt	nt
55	COc1ccc(CCCNC(=O)C2Cc3c(-c4ccccc4)ccnc3O2)cc1 (stereo unspecified)	-11	-36	0	-2	nt	nt	nt	nt
56	COc1cccc(C2=CC(c3ccc(N(C)C)cc3)n3nnnc3N2)c1 (stereo unspecified)	-19	-22	-97	-1	-6	-1	i	28
57	COc1ccc(-n2c(=O)c3c4c(sc3n3c(=S)[nH]nc23)CCC4)cc1	nt	19	0	1	2	6	i	-1
58	CN1CCc2c(sc(NC(=O)c3ccc(S(=O)(=O)N4CCc5ccccc54)cc3)c2C(N)=O)C1	nt	9	nt	nt	?	?	i	82*
59	COc1ccc(C(=O)OCC2CC(c3ccccc3)N(C)O2)cc1 (stereo unspecified)	4	-76	-1	-3	6	-2	i	11
60	COc1ccccc1Nc1nn2c(=O)c3ccc(C(=O)N4CCCCC4)cc3nc2s1	-2	5	2	-2	0	-3	i	3
61	CCCc1[nH][nH]c(=O)c1C(c1ccc(Br)cc1)C(C#N)C#N (stereo unspecified)	-17	nt	3	1	-3	-13	i	0
62	Cc1cccc(CC(Cc2nc3ccccc3[nH]2)c2nc3ccccc3[nH]2)c1 (stereo unspecified)	nt	nt	-11	-12	5	21	i	-13
63	Cc1ccccc1-n1nc2c(c1NC(=O)c1cc3ccccc3o1)CS(=O)(=O)C2	nt	-2	-3	-2	nt	nt	i	-5

Profiles as entered above. Values in the order: UUG fidelity, Env fusion inh, MT1-MMP act inh, MT1-MMP act inh RFP, eIF4H FP inh, PABP FP inh, Rce1 inh, CSC inhib
`COc1ccc(C(=O)OCC2CC(c3ccccc3)N(C)O2)cc1` (stereo unspecified) is listed as 4, -76, -1, -3, 6, -2, i, 11
`O=C(CSC(=S)N1CCCCC1)Nc1ncc2c(n1)CCCC2=O` is listed as nt, -8, -5, 2, 6, 3, i, -11
`COc1ccc(-n2c(=O)c3c4c(sc3n3c(=S)[nH]nc23)CCC4)cc1` is listed as nt, 19, 0, 1, 2, 6, i, -1
`COc1cccc(C2=CC(c3ccc(N(C)C)cc3)n3nnnc3N2)c1` (stereo unspecified) is listed as -19, -22, -97, -1, -6, -1, i, 28
`CCC(=O)N1N=C(c2ccc(Cl)cc2)CC1c1ccco1` (stereo unspecified) is listed as nt, 6, 1, -3, -11, -2, i, 9
